# Screening data (PubChem BioAssay)
# KCNQ2 enhance: KCNQ2 (rat) channel potentiation; O88943; CHO-K1 KCNQ2, FluxOR thallium flux fluorescence; hits give high values; B-score at 10 µM; actives 0.54% (n = 310,000);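 active = fluorescence ratio B-score at least 3 SD of library B-scores, with initial fluorescence B-score within 3 SD, cut at about 5.3 in these data; same plate scores as AID 2156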;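 note: B-score of peak minus minimum over baseline fluorescence ratio after K+ and Tl+ stimulus; positive B-score means potentiation of KCNQ2 with more thallium influx and brighter signal; only the inactives scoring about 0 or higher are listed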
# Target sequence (O88943 whole entry, looked up): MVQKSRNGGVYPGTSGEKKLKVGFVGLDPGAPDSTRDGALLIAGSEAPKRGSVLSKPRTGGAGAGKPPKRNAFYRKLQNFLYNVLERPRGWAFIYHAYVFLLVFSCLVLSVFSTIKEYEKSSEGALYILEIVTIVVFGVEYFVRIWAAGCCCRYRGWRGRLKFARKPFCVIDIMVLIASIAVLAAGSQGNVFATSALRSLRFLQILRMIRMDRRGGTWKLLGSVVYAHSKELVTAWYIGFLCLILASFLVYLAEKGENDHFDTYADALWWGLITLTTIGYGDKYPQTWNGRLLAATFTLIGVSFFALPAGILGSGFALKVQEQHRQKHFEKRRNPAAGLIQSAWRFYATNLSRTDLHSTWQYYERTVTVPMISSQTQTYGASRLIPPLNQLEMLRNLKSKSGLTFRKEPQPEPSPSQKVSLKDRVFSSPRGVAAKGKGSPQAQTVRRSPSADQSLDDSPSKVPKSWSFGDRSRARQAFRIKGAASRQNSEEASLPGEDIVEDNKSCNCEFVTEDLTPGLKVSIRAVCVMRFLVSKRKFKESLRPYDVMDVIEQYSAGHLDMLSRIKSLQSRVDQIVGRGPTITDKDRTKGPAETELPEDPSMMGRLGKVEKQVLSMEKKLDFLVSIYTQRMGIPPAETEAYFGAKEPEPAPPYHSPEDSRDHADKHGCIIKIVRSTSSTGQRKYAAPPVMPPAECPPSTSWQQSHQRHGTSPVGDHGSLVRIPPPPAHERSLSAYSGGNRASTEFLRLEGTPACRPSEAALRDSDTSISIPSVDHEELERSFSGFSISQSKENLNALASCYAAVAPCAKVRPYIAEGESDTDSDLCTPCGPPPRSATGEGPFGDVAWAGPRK
# KCNQ2 enhance baseline: further read-out of KCNQ2 enhance, marked with its call; B-score; compound at 10 µM; measured here: initial fluorescence intensity artifact check;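 brightness before thallium and not channel activity; 0 = typical well and far values either way flag optical interference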
# Active calls of the source: *. Only part of the results is shown (hit frequency here may not be typical).
# Preview, three compounds:
# Fields – KCNQ2 enhance, KCNQ2 enhance baseline
> O=Cc1cc2ccccc2nc1SCCCF
 : 4.7, -0.05
> Cc1cc2cc(C)c(SCC(=O)NCc3ccco3)nc2cc1C
 : 0.06, 0.04
> COc1cc(CN2CCCCC2)ccc1OCc1ccccc1
 : 0.63, 0.56

# Results, previewed entries included:
# Fields – KCNQ2 enhance, KCNQ2 enhance baseline
> O=Cc1cc2ccccc2nc1SCCCF
 : 4.7, -0.05
> Cc1cc2cc(C)c(SCC(=O)NCc3ccco3)nc2cc1C
 : 0.06, 0.04
> COc1cc(CN2CCCCC2)ccc1OCc1ccccc1
 : 0.63, 0.56
> Nc1cccnc1Sc1ccc([N+](=O)[O-])cn1
 : 0.88, -0.03
> NC(=O)c1nsc(C(=O)N(c2ccccc2)C(C(=O)NC2CCCC2)c2ccc3ncccc3c2)c1N (configuration not stated)
 : 1.9, -0.93
> CCn1cc(CNC(=O)c2ccc3nc(Cc4ccc(OC)cc4)oc3c2)cn1
 : 2.8, -1.6
> Cc1ccccc1-n1c(SCc2ccccn2)nc2n[nH]c(C)c2c1=N
 : 0.02, -0.41
> COc1ccc(NC(=O)Cc2nnc(SCC(=O)NC3=NCCS3)n2C)cc1
 : 0.36, -0.01
> CCN(CC)S(=O)(=O)c1ccc(NS(=O)(=O)c2ccc3oc(=O)[nH]c3c2)cc1
 : 2, -1.1
> Cc1ccc(C)c(S(=O)(=O)N2CCN(C(=O)c3ccc(C)s3)CC2)c1
 : 0.67, -0.03
> CCNC(=O)CN(c1ccc(OC)c(OC)c1)S(=O)(=O)c1ccccc1
 : 0.35, 0.86
> Cc1ccccc1NC(=O)CN1C(=O)N/C(=C\c2ccc(N3CCOCC3)c(F)c2)C1=O
 : 0.84, -1.3
> CON(C)c1nc(Oc2ccc(=O)[nH]n2)nc(N(C)C)n1
 : 1.8, 0.43
> CCCCNC(=O)c1c(N)n(/N=C/c2ccccn2)c2nc3ccccc3nc12
 : 1.4, -0.06
> COC(=O)c1cn(CC(=O)NC2CCCCC2)c2ccccc12
 : 1.4, -0.49
> Cc1ccc(SCC(=O)NCc2ccc(F)cc2)cc1
 : 1.2, -0.86
> CCc1cc2c(=O)n(Cc3ccccc3)c(SC3CCOC3=O)nc2s1 (configuration not stated)
 : 0.77, -0.29
> CCCc1nc(SC)[nH]c(=O)c1C
 : 0.57, -0.08
> COc1ccc(NC(=O)CNS(=O)(=O)c2cccs2)c(OC)c1
 : 1.1, 0.7
> O=[N+]([O-])C(/C=C(\Cl)[N+](=O)[O-])=C(N1CCCCC1)N1CCCCC1
 : 1.9, 0.51
> COc1ccc(S(=O)(=O)Nc2ccccn2)cc1
 : 0.2, 0.87
> CCn1c(C)c(C)c2cc(C(=O)NCCCN3CCN(C)CC3)ccc21
 : 0.07, 1.1
> COc1ccc(C(=O)NC(C)c2nnc(SCC(=O)NC3=NCCS3)n2C)cc1 (configuration not stated)
 : 0.77, -0.2
> Clc1ccccc1C1CC(c2ccccc2)Nc2ncnn21 (configuration not stated)
 : 0.4, 0.69
> COc1ccccc1Nc1nnc(SCC(=O)NC(=O)Nc2ccc3c(c2)OCCO3)s1
 : 0.52, 2.2
> O=C(CCn1nc(-c2ccc(Cl)cc2)c2ccccc2c1=O)NN1CCOCC1
 : 0.23, 0.13
> COc1ccc(NC(=O)CSc2nnc(-c3cnccn3)n2C)cc1OC
 : 1.1, -0.45
> Cc1ccc(C(=O)Nc2ccc(N3CCOCC3)nc2N2CCOCC2)cc1
 : 0.76, 1.3
> CCOc1c(Cl)cc(CNc2nnnn2C)cc1OC
 : 0.05, 0.13
> CCOC(=O)c1c(-c2ccccc2)csc1NC(=O)c1ccc(S(=O)(=O)N2CC(C)OC(C)C2)cc1 (configuration not stated)
 : 0.25, -0.04
> CCOc1ccc2nc(/N=C/c3nc(-c4ccc(Br)cc4)oc3O)sc2c1
 : 2.4, 0.03
> CCCCc1ccc(NC(=S)N2CCN(C(=O)c3ccco3)CC2)cc1
 : 0.46, -0.01
> O=C(NC(=O)N1CCOCC1)c1ccccc1
 : 0.12, 2.7
> CCCCN(C(=O)c1ccc([N+](=O)[O-])o1)c1c(N)n(CCCC)c(=O)[nH]c1=O
 : 0.25, -0.73
> COc1cc(CNCc2cc(OC)c(OC)c(OC)c2)cc(OC)c1
 : 1.2, -0.97
> COc1ccccc1CCNS(=O)(=O)c1ccc(C(=O)O)n1C
 : 0.69, 1.1
> Fc1cc(F)c(NC(=S)N2CCOCC2)c(F)c1
 : 0.59, 0.56
> O=C1CC(c2cccc(Br)c2)C2=C(COC2=O)N1 (configuration not stated)
 : 0.72, -1.2
> O=C(Cn1c(CO)nc2ccccc21)Nc1ccccc1Cl
 : 0.1, -0.18
> Cc1ccc(N)cc1-n1c(C)ccc1C
 : 0.95, 0.04
> Cc1ccc(O)c(NC(=O)c2noc(C(C)C)c2[N+](=O)[O-])c1
 : 0.58, 0.23
> O=C(Nc1ccc(N2CCN(C(=O)c3ccco3)CC2)cc1)c1ccccc1Br
 : 0.03, -0.34
> COc1ccc(Cc2c(N)nc(C)nc2N)cc1
 : 1.7, -0.48
> CCOc1ccc(/C(CCC(=O)O)=N/NC(=S)NC(C)C)cc1
 : 0.01, -0.39
> CC(C)CNC(=O)c1ccc(Cl)c(NC(=O)COc2ccccc2)c1
 : 0.96, -1.3
> CCOC(=O)N1CCN(c2cc(=O)n(-c3ccccc3C)c(=O)[nH]2)CC1
 : 0.51, 0.05
> Cn1ncc2c(Nc3cccc([N+](=O)[O-])c3)ncnc21
 : 0.23, -0.01
> Cc1ccc(/C=N/n2c(-c3ccccc3)n[nH]c2=S)cc1
 : 1.3, 0.02
> CCN(C(=S)NC(=O)Cc1ccc(OC)cc1)c1ccccc1
 : 0.02, 1.8
> CCn1cnc2c1c(=O)n(CC(=O)OC(C)C(N)=O)c(=O)n2Cc1ccccc1 (configuration not stated)
 : 0.39, 0.06
> CN(C)c1ccc(Nc2ncnc3ccc(Br)cc23)cc1
 : 1.7, 0.13
> COc1cc(C(=S)N2CCCC2)cc(OC)c1O
 : 1.1, 0.32
> COc1ccc(Sc2nc3ccccc3n3c(C(F)(F)F)nnc23)cc1
 : 1.3, 0.89
> CCOC(=O)c1cc2cc(C)ccc2[nH]1
 : 0.83, -0.05
> Cc1ccc2nc(Cl)c(/C=N/NC(=O)CN3CCOCC3)cc2c1
 : 0.26, 0.04
> CC(OC(=O)c1ccc(NC(=O)CC#N)cc1)C(=O)Nc1ccc2c(c1)OCCO2 (configuration not stated)
 : 0.15, -0.6
> O=[N+]([O-])c1cccc(N/N=C/c2cc([N+](=O)[O-])ccc2O)c1
 : 1.3, 0.94
> O=C(CN1C2=NCCN2c2ccccc21)N1CCOCC1
 : 0.02, 1.2
> O=C(NC1CCCCCCC1)c1ccco1
 : 0.34, 1.9
> O=c1[nH][nH]c(=O)c2c(NS(=O)(=O)c3ccccc3)cccc12
 : 3, 0.1

# Whole records as entered above.
# Cn1ncc2c(Nc3cccc([N+](=O)[O-])c3)ncnc21 reads KCNQ2 enhance: 0.23; KCNQ2 enhance baseline: -0.01
# O=[N+]([O-])C(/C=C(\Cl)[N+](=O)[O-])=C(N1CCCCC1)N1CCCCC1 reads KCNQ2 enhance: 1.9; KCNQ2 enhance baseline: 0.51

# The results go on:
# Fields – KCNQ2 enhance, KCNQ2 enhance baseline
> CCc1ccccc1NC(=O)CCS(=O)(=O)c1ccc(C)cc1
 : 0.38, -0.67
> COc1cc(-c2nnc(NC(=O)CS(=O)(=O)c3ccc(F)cc3)o2)cc(OC)c1OC
 : 0.82, 0.48
> CC1CC(C)CN(CCCn2c(=S)[nH]c3ccccc3c2=O)C1 (configuration not stated)
 : 1.4, 0.93
> COc1ccc(CCNC(=O)COC(=O)CCC(=O)c2ccc(F)cc2)cc1OC
 : 0.68, 0.86
> COC(=O)c1cn(CCC#N)nc1-c1ccc2ccccc2c1
 : 2.6, 0.42
> O=C(CN1CCCCC1)Nc1cccc(Cl)c1
 : 0.72, -0.58
> CCn1cc(C(=O)Nc2ccc(OC)c(OC)c2)c2cc(OC)c(OC)cc2c1=O
 : 0.55, -0.95
> O=C(O)c1cccc2c1C(=O)N(Cc1ccccc1)C2
 : 0.15, -1.2
> O=c1[nH]c(=O)n(-c2ccc(F)cc2)c2c1C(C(F)(F)F)(C(F)(F)F)N=C(c1ccc(F)cc1)N2
 : 0.01, -0.75
> COc1cc(/C=N/NC(=O)c2nnn(-c3nonc3N)c2C(C)C)ccc1OCc1ccccc1
 : 0.3, -3.1
> CCCC(=O)Nc1c(O)c2ccccc2[nH]c1=O
 : 0.17, -0.7
> O=C(CN1CCN(c2ccccc2F)CC1)c1ccc(O)cc1O
 : 0.42, -0.35
> CCCc1nnc(NC(=O)C23CC4CC(CC(C4)C2)C3)s1
 : 2.8, 0
> COC(=O)C1=C(N)Oc2cc(C)n(Cc3cccnc3)c(=O)c2C1c1ccc(OC)c(OC)c1OC (configuration not stated)
 : 0.11, 1.1
> CCOC(=O)Cn1c(=O)c2c(nc3n2CCCN3CCc2ccccc2)n(C)c1=O
 : 0.02, 0.43

# Other compounds.
Molecule,KCNQ2 enhance,KCNQ2 enhance baseline
O=C(O)CC(NS(=O)(=O)c1c(F)cc(F)cc1Br)c1ccccc1Cl (configuration not stated),0.99,3.9
CCCCNC(=O)CCNS(=O)(=O)c1ccc(C)cc1,1.4,0.29
Cc1ccc(S(=O)(=O)NC(=O)c2ccc(F)cc2)c(C)c1,1.1,0.05
O=C(NCc1cccs1)c1cc(-c2ccccc2)nn1CC1CC(c2cccnc2)=NO1 (configuration not stated),0.67,1.5
COc1ccc(NC(=O)c2ccco2)cc1NC(=O)c1ccc(Br)o1,0.99,1
CCc1c(C)[nH]n(-c2nc(-c3ccccc3)cs2)c1=O,2.1,-0.08
NC(=O)C1CCCN(S(=O)(=O)c2ccccc2)C1 (configuration not stated),0.87,-0.78
NC1C=CC=C(C(=O)O)C1 (configuration not stated),0.96,0.84
CC(C)CC(=O)N1CCC(O)(CS(=O)(=O)Cc2ccc(Cl)cc2)CC1,0.55,-0.04
CCOC(=O)CNC(=O)N1CCc2ccc(NC(=O)c3ccccc3OC)cc2C1,0.72,2.7
O=C(CC1C(=O)NCCN1CC1CCCCC1)NC1(c2ccccc2)CC1 (configuration not stated),0.56,-0.1
CCC(C)NC(=O)Cn1cnc2sc(C)cc2c1=O (configuration not stated),0.58,0.57
Cc1ccc(C(=O)NCCCn2ccnc2)cc1[N+](=O)[O-],0.18,1.7
Cc1ccc(C(=O)OCC(=O)Nc2cc(S(=O)(=O)N3CCOCC3)ccc2C)cc1,0.47,2.5
NC(=O)C12CCCC(Br)(CCC1)C2,1.6,0.04
Cc1ccc(NC(=S)NCC2CCCO2)cc1 (configuration not stated),0.83,-1.4
CS(=O)(=O)N1CCN(C(=O)c2ccc(-c3ccccc3)cc2)CC1,1.3,-2.6
CCC(c1nnnn1CCc1ccccc1)N1CCN(C(=O)c2ccco2)CC1 (configuration not stated),1.1,1.9
COc1ccc(OC)c(CNC(=O)C2CCN(S(=O)(=O)N3CCCCC3)CC2)c1,0.62,-0.46
O=C(c1ccc(NC(=S)Nc2ccc(Cl)c(Cl)c2)cc1)N1CCCC1,0.18,-0.08
CCc1nc(N[C@@H](CC(C)C)C(=O)O)c2oc3ccccc3c2n1,2,0.01
CC(C)(C)OC(=O)NC(CCNC=C1C(=O)OC(C)(C)OC1=O)C(=O)O (configuration not stated),0.49,-2.4
Cc1nn(Cc2ccc(Cl)c(Cl)c2)c(C)c1NC(=O)c1cc(-c2ccco2)on1,0.86,1.6
CCOC(=O)c1oc2c(c1C)/C(=N/O)CCC2,0.09,1.2
COC(=O)c1ccc(OC(=O)c2cnccn2)cc1,1.2,0.31
Cc1csc(NC(=O)CSc2nnc3c4ccccc4nc(C(C)(C)C)n23)n1,0.7,0.78
Cc1ccc(NC(=O)c2ccc3nc[nH]c3c2)c(O)c1,1.8,-2
O=C1c2ccccc2CN1CCNS(=O)(=O)c1ccc(Cl)cc1,0.83,0.05
Cc1ccccc1CN1CCC(CNC(=O)Nc2ccc(F)cc2F)CC1,2.2,0.49
CCOC(=O)Nc1ccc(S(=O)(=O)NCc2ccccc2)cc1,2.3,-0.71
Cc1c(NS(=O)(=O)c2cccc3nsnc23)c(=O)n(-c2ccccc2)n1C,1.7,-0.01
Cc1ccc2c(c1)CCCN2C(=O)c1ccco1,1.8,-0.93
CCOc1ccc(N(CC(=O)Nc2ccc(CC)cc2)S(=O)(=O)c2c(C)[nH]c(=O)[nH]c2=O)cc1,1.2,-0.32
O=C(O)CSc1cc(C(=O)c2ccccc2O)cn2c(=O)c3c(-c4ccccc4)csc3nc12,1.9,-1.1
COc1ccc(S(=O)(=O)n2nc(OC(=O)c3ccncc3)cc2N)cc1,1.2,0.96
CCc1cc2c(COC(=O)c3cccc(NS(C)(=O)=O)c3)cc(=O)oc2cc1O,0.52,-0.54
Cc1cc(SCC(=O)N(C)c2c(N)n(Cc3ccccc3)c(=O)[nH]c2=O)nc2ccccc12,0.02,0.01
O=C(O)c1ccccc1S(=O)CCO (configuration not stated),0.1,-1.2
O=C(c1cccs1)N1N=C(c2ccccc2)CC1c1ccc(O)cc1 (configuration not stated),0.02,0.03
CN(C(=O)CSc1nnc(COc2ccccc2F)n1N)C1CCS(=O)(=O)C1 (configuration not stated),0.07,0
COc1cc(OC)c(C2C(C#N)=C(N)Oc3cc(C)n(CCCN4CCOCC4)c(=O)c32)cc1OC (configuration not stated),0.17,-0.64
O=C(CN1C(=O)CSC1=O)Nc1ccccc1N1CCOCC1,0.49,0.87
COc1ccc(C(=O)Nc2cccc3nc(C)ccc23)c(OC)c1,1.7,0.66
CCOC(=O)N1CCN(C(=O)COC(=O)CNC(=O)c2ccc(Cl)cc2Cl)CC1,1.4,-0.85
CCOc1cc(NCCN2CCOCC2)c([N+](=O)[O-])cc1OCC,0.92,-1.5
CC(C)OC(=O)NCCOC(=O)Nc1cccc(Cl)c1,0.65,-1.9
O=C(O)CC1=C(O)C(=O)N(c2ccccc2)C1c1ccc(Br)cc1 (configuration not stated),1,-0.03
Cc1nc(SCC(=O)c2ccc(F)cc2)c([N+](=O)[O-])[nH]1,2.1,1
